hNpr1 antagonist: Natriuretic polypeptide receptor (hNpr1) antagonism - Primary qHTS; AID 1347048, 2019; hit rate 1.6% among 76,000; Atrial natriuretic peptide receptor 1 (Homo sapiens), P16066; HEK293 hNpr1 GloSensor cGMP, ANP-stimulated luminescence; Potency, µM (doses to about 46.3 µM), inactives show top-dose activity change, negative = inhibition, actives largely listed as inhibitors; active = well fitted inhibition curve with a large enough effect; inconclusive = small, poorly fitted or top-dose-only effect; inactive = no such curve, though single readings can be large or run the other way;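 further: nearly all actives have a fitted effect of over 60% in size; nearly all hits also lower the signal before the agonist is added; a reference antagonist and vehicle were the controls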
Target sequence (P16066 whole entry, looked up): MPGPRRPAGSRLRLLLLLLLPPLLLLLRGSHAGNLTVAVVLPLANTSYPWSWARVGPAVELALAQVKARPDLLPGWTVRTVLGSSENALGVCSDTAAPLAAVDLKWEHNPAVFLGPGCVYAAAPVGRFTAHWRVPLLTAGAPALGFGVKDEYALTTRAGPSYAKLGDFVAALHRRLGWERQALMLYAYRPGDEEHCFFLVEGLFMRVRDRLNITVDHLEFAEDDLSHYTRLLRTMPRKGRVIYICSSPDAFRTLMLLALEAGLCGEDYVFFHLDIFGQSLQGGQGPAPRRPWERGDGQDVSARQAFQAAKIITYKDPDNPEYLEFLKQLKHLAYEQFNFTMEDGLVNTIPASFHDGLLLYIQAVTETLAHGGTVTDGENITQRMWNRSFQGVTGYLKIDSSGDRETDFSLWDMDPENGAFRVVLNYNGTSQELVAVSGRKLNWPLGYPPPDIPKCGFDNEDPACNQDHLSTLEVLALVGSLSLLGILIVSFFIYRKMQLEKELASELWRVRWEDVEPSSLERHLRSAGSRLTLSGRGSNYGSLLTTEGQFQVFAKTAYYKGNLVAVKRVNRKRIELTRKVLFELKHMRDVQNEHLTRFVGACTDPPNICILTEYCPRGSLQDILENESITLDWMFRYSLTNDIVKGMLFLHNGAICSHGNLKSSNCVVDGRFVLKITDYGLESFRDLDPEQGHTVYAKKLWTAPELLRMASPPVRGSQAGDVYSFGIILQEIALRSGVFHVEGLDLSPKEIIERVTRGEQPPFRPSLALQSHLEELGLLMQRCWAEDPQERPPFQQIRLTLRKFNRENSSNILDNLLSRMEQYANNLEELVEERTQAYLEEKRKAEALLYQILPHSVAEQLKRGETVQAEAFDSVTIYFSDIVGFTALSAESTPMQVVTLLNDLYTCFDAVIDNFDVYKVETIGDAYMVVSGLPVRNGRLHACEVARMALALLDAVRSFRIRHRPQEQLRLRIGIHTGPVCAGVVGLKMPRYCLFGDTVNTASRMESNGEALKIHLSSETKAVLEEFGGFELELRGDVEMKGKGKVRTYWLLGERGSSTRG
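Compound pre-incubated 30 min at room temperature on GloSensor-loaded HEK293 cells stably carrying hNpr1 and the pGS-40F cGMP biosensor. Stimulation uses hNppA at 0.1 nM final; luminescence is taken at baseline and 20 min post-agonist.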
* marks the source's active call; other numbers are inactive results; [ ] = another dose, or the depositor's remark. On the % scale 0 is the no-effect control and ±100 the full control effect; potency means the concentration at half of the fitted maximal effect.

CN1CCC(OC2CCN(C(=O)CCCc3ccccc3)CC2)CC1 was read as hNpr1 antagonist -6%.
Screening CCc1cc(N2CCN(CC3(O)CCCNC3)CC2)ncn1 (stereo unspecified) returned hNpr1 antagonist -1%.
CCCN(C)C(=O)COc1ccc(NC(=O)C2CC2)cn1 was read as hNpr1 antagonist 2%.
`O[C@@H]1CC(CNCc2ccc(F)cc2)(COc2cnccn2)C[C@@H]1O` (stereo partly specified) gave hNpr1 antagonist 1%[70.6 µM].
COc1cccc(S(=O)(=O)N2CCC3(CC2)CC(N(C)Cc2ccccc2)CCO3)c1 (stereo unspecified) was read as hNpr1 antagonist inconclusive.
CC(=O)N1CCC2(CC1)CCN(Cc1cccs1)c1ccccc1O2 was read as hNpr1 antagonist 3%.
For Cc1ccc(C(C)CCN2CCC(N3CCC(C(=O)NC4CC4)CC3)CC2)o1 (stereo unspecified) the results were hNpr1 antagonist 0%.
For O=C(NCc1cccc(Cl)c1)[C@@H]1C[C@H](c2ccc(F)cc2)N([S+](=O)([O-])C2CC2)C1 the results were hNpr1 antagonist 4%[70.6 µM].
Screening Cc1ccccc1C(=O)N1CCN(c2cc(-c3ccc(F)cc3)[nH]n2)CC1 returned hNpr1 antagonist -21%.
COc1cccc(CC(=O)NCCc2noc(-c3cccnc3)n2)c1 was read as hNpr1 antagonist 0%.
Screening CCN(CC)C(=O)N1CCC2(CC1)CC(N1CCN(c3ccccn3)CC1)CCO2 (stereo unspecified) returned hNpr1 antagonist -3%.
For Cc1cccc(-n2ncc3c2CCCC3NC(=O)c2c(F)ccc(F)c2F)c1C (stereo unspecified) the results were hNpr1 antagonist 5µM*.
Cc1nc(C(=O)N2CCn3nc(Cc4ccccc4)cc3C2)cs1 was read as hNpr1 antagonist 6%.
Cc1nnc(NC(=O)NCCn2nc(-c3ccccc3)ccc2=O)s1 was read as hNpr1 antagonist 0%.
`COc1ccccc1-c1[nH]nc2ncc(C(=O)NCc3ccccc3)nc12` gave hNpr1 antagonist 2%[70.6 µM].
`O=C(CCC[C@@H]1[C@H]2CCCN3CCC[C@@H](CN1Cc1ccccc1)[C@@H]23)Nc1cccnc1` gave hNpr1 antagonist 0%.
Screening CN1CCN(c2cc(=O)c3ccnc(-c4cn[nH]c4)c3o2)CC1 returned hNpr1 antagonist 0%[70.6 µM].
Screening COc1ccc(C)cc1NC(=O)N1CCC(Oc2ncccc2C(=O)N2CCOCC2)C1 (stereo unspecified) returned hNpr1 antagonist 10%.
For OC1(c2cnc(CN3CCC3)s2)CCNCC1 the results were hNpr1 antagonist -8%[70.6 µM].
`COC(=O)C1=C(C)N=C2SC=C(CC(=O)NCc3ccccc3)N2C1c1ccccc1OC` (stereo unspecified) gave hNpr1 antagonist -20%.
Screening COc1ccc(S(=O)(=O)N2CCC(CCOc3ccccc3F)C2)cc1 (stereo unspecified) returned hNpr1 antagonist -17%.
Screening COCCc1nncn1C1CCN(C(=O)c2ccccc2C(F)(F)F)CC1 returned hNpr1 antagonist -3%.
For CCc1noc(-c2cn(C3CCCN(C(=O)COc4cccc(C)c4)C3)nn2)n1 (stereo unspecified) the results were hNpr1 antagonist -4%.
Screening COc1cc(Cl)ccc1C(=O)NC1CCN(c2cc(-c3ccc(F)cc3)[nH]n2)C1 (stereo unspecified) returned hNpr1 antagonist -13%.
`Cc1nn(-c2ccccn2)c(C)c1[C@@H]1C=C[C@@H](NC(=O)CCCC(=O)O)C1` gave hNpr1 antagonist -1%[70.6 µM].
Screening CC(=O)N1CCN(Cc2nc3c(n2Cc2ccccc2)C(=O)N(Cc2ccccc2C#N)CCN3)CC1 returned hNpr1 antagonist 0%.
Cc1ccccc1[C@H]1[C@@H](C(=O)N(C)Cc2ncccc2C)C[C@@](C)(C(=O)O)N1C was read as hNpr1 antagonist 7%.
`CN(C)c1ccc(C(=O)N2CC[C@@H](CC(=O)O)[C@@H](CCN3CCN(c4cccc(C(F)(F)F)c4)CC3)C2)cc1` gave hNpr1 antagonist -9%.
Screening CNC(=O)[C@@H]1CN(C(=O)c2c[nH]c3ccccc23)C[C@H]1C1CCN(C)CC1 returned hNpr1 antagonist 6%.
For O=C1NC2(CCCN(CC3CC3)C2)Oc2ccccc21 (stereo unspecified) the results were hNpr1 antagonist 0%[70.6 µM].
Screening Fc1ccc(CN2CCOC[C@H]2c2ncc(-c3ccc(Cl)s3)[nH]2)cc1 returned hNpr1 antagonist inconclusive.
`c1ccc2c(CN3CCC[C@H]3c3nc(-c4ccc(OC5CCCCC5)nc4)no3)c[nH]c2c1` gave hNpr1 antagonist -29%.
`Cc1cc(C)cc(C(=O)N2c3ccccc3CC2c2nc(C3CC3)no2)c1` (stereo unspecified) gave hNpr1 antagonist -20%.
For COc1ccc(NC(=O)c2cc3c(s2)CN(C2CCCC2)C3)c(OC)c1 the results were hNpr1 antagonist -1%.
For COc1ccc(CNC(=O)c2cc3c(s2)CCN(C(=O)c2ccc(C)cc2)C3)cc1 the results were hNpr1 antagonist -13%.
For O=c1ccc(N2CCC(NS(=O)(=O)c3ccccc3Cl)CC2)nn1CC1CC1 the results were hNpr1 antagonist 13µM*.
For O=C(c1ccc(F)c(F)c1)N1CCC(c2n[nH]c(=O)n2-c2ccccc2)CC1 the results were hNpr1 antagonist 0%.
For COC(=O)c1ccc(CN2C(=O)[C@@H]3C[C@@H](O)CN3C3(CN(Cc4cccc(OC)c4)C3)C2=O)cc1 the results were hNpr1 antagonist -7%.
Screening N#Cc1ccc(C(=O)N2C[C@@H](Oc3ccccc3)C[C@H]2C(=O)N2CCCC2)cc1 returned hNpr1 antagonist -1%.
CC(C)NC(=O)N1CCC(O)(c2csc(CN3CC[C@@H](O)C3)n2)CC1 was read as hNpr1 antagonist 2%[70.6 µM].
COc1ccc(-c2nnc(C[C@@H]3C[C@@H](C(C)C)[C@H](CN4CCC(C(N)=O)CC4)C=C3C)o2)cc1 was read as hNpr1 antagonist 1%.
Fc1ccc(-c2cnc3n[nH]c(-c4ccc5c(c4)OCO5)c3n2)cc1 was read as hNpr1 antagonist -3%[70.6 µM].
For Cc1nc(-c2c3n(c(=O)n(CC(=O)Nc4ccc(C)c(F)c4)c2=O)CCCC3)no1 the results were hNpr1 antagonist 3%.
Screening CC(C)(C)OC(=O)N1CCC(Cn2c(=O)[nH]c3cccnc32)CC1 returned hNpr1 antagonist 8%[70.6 µM].
For CCN1CC(C(=O)N2CCN(Cc3cc(OC)ccc3OC)CC2)CC1=O (stereo unspecified) the results were hNpr1 antagonist 5%.

Continued, starting with the last 7 of the part before.
Screening N#Cc1ccc(C(=O)N2C[C@@H](Oc3ccccc3)C[C@H]2C(=O)N2CCCC2)cc1 returned hNpr1 antagonist -1%.
CC(C)NC(=O)N1CCC(O)(c2csc(CN3CC[C@@H](O)C3)n2)CC1 was read as hNpr1 antagonist 2%[70.6 µM].
COc1ccc(-c2nnc(C[C@@H]3C[C@@H](C(C)C)[C@H](CN4CCC(C(N)=O)CC4)C=C3C)o2)cc1 was read as hNpr1 antagonist 1%.
Fc1ccc(-c2cnc3n[nH]c(-c4ccc5c(c4)OCO5)c3n2)cc1 was read as hNpr1 antagonist -3%[70.6 µM].
For Cc1nc(-c2c3n(c(=O)n(CC(=O)Nc4ccc(C)c(F)c4)c2=O)CCCC3)no1 the results were hNpr1 antagonist 3%.
Screening CC(C)(C)OC(=O)N1CCC(Cn2c(=O)[nH]c3cccnc32)CC1 returned hNpr1 antagonist 8%[70.6 µM].
For CCN1CC(C(=O)N2CCN(Cc3cc(OC)ccc3OC)CC2)CC1=O (stereo unspecified) the results were hNpr1 antagonist 5%.
CCc1c(C)nn(CC(=O)N2CC[C@@](O)(CCOC)[C@H](C)C2)c1C was read as hNpr1 antagonist 12%.
Screening COc1cccc(Nc2cc3[nH]ccc3c(C(=O)NCc3c(C)cc(C)[nH]c3=O)n2)c1 returned hNpr1 antagonist 1%[70.6 µM].
Screening Cc1ccc(C(=O)N2CCCCCCNC(=O)[C@@H]3C[C@@H](c4nc(-c5cnccn5)no4)C[C@@H]32)s1 returned hNpr1 antagonist 0%.
For Cc1cc(C)cc(Nc2nc(C)cc(=O)n2CC(=O)Nc2cccc(C(F)(F)F)c2)c1 the results were hNpr1 antagonist -23%.
Screening Cc1ccc(C(=O)N2CCOC(CN(C(=O)c3ccc(F)cc3)C3CCCC3)C2)cc1 (stereo unspecified) returned hNpr1 antagonist -2%.
`O=C(c1cccs1)N1CCC(c2noc(-c3cnccn3)n2)C1` (stereo unspecified) gave hNpr1 antagonist 1%.
COc1ccccc1C(C)N(C)C(=O)c1cccc(CCC(C)(C)O)c1 (stereo unspecified) was read as hNpr1 antagonist 3%.
Screening CNC(=O)[C@@H](c1ccc(OC)cc1)N1CCC[C@H]1C(=O)N1CCCC1 returned hNpr1 antagonist -3%[70.6 µM].
`CC(C)(C)c1ccc(C(=O)N2CCN(c3cc(C(F)(F)F)ncn3)CC2)cc1` gave hNpr1 antagonist -25%.
For COCCN1C(=O)c2cccn2CC1CNC(=O)CCc1nc2ccccc2[nH]1 (stereo unspecified) the results were hNpr1 antagonist 3%.
For Cc1ccc(N2C[C@]34C=C[C@H](O3)C(C(=O)N(C)CCc3cn[nH]c3)C4C2=O)cc1C (stereo partly specified) the results were hNpr1 antagonist 0%.
Screening CCC(CC)CN1CC2(CCN(C(=O)c3cnc(NC)nc3)CC2)OC1=O returned hNpr1 antagonist 5%.
Screening COc1ccc(F)cc1S(=O)(=O)N1CCC(Oc2ccc(C(N)=O)cn2)CC1 returned hNpr1 antagonist 1%.
Screening CCNC(=O)[C@@H]1C[C@@H](NC(=O)c2cn(C)nc2C)CN1Cc1ccccc1 returned hNpr1 antagonist 7%.
For CSCC(=O)N1CC[C@H](NC(=O)NC(C)C)[C@H]1C(=O)N[C@H](Cc1ccccc1)C(N)=O the results were hNpr1 antagonist 1%.
`O=C(NCc1ccc(Cl)cc1)C1CCN(c2cc(C(F)(F)F)ncn2)CC1` gave hNpr1 antagonist 11µM*.
Screening CCOC(=O)C1(Cc2ccccc2F)CCCN(C(=O)c2cccc(-n3cccn3)c2)C1 (stereo unspecified) returned hNpr1 antagonist -1%.
For COc1ccccc1-n1cc(C(=O)NC(C(=O)O)c2c(C)n[nH]c2C)cn1 (stereo unspecified) the results were hNpr1 antagonist 3%.
Screening COc1ccc2[nH]c(C(=O)NCC(=O)N3CCCCCNC(=O)CC3c3ccccc3)cc2c1 (stereo unspecified) returned hNpr1 antagonist 4%.
`CC(C)C(=O)N1CCC(Oc2ccccc2-c2nc(-c3cnccn3)no2)C1` (stereo unspecified) gave hNpr1 antagonist 5%.
`Cc1cccc(-n2cc(CN3CCN(c4cc(N)nc(N)n4)CC3)cn2)c1` gave hNpr1 antagonist -2%.
For COc1cc(NC(=O)Cn2c(-c3ccccc3)nc(C)c(CCO)c2=O)cc(OC)c1 the results were hNpr1 antagonist inconclusive.
Screening COc1ccc(-c2cn(C)c(=O)n3cc(COc4ccccc4)nc23)c(C)c1 returned hNpr1 antagonist 5%[70.6 µM].
CN(C)c1ccc(-c2nnnn2[C@H]2CO[C@H]3[C@@H]2OC[C@@H]3NC(=O)CC2(CC(=O)O)CCCC2)cc1 was read as hNpr1 antagonist 0%.
`COc1ccccc1CN1CCNc2cc(-c3ccnc(C)c3)ncc2C1` gave hNpr1 antagonist -4%[70.6 µM].
Screening CN1CCOc2c(C(=O)NCCN3CCNC3=O)cc(-c3cccc4[nH]ccc34)cc21 returned hNpr1 antagonist 2%[70.6 µM].
Screening COc1ccc(S(=O)(=O)N2CCCC(Cc3noc(-c4cnccn4)n3)C2)cc1 (stereo unspecified) returned hNpr1 antagonist 16%.
Screening CS(=O)(=O)c1ccc(OCC2(CNCc3ccc(F)cc3)C[C@@H](O)[C@@H](O)C2)cc1 (stereo partly specified) returned hNpr1 antagonist 3%.
COc1ccc(CCc2nc3nccc(-c4cccnc4)n3n2)cc1OC was read as hNpr1 antagonist -1%.
COc1ccc(NC(=O)N[C@H]2CO[C@H]3[C@@H]2OC[C@@H]3n2nnnc2-c2ccc3c(c2)OCO3)cc1 was read as hNpr1 antagonist 0%.
`COCC(=O)Nc1ccc(-c2noc([C@@H]3CCCN3Cc3ccc(NC(C)=O)cc3)n2)cn1` gave hNpr1 antagonist 0%.
`CC(C)Oc1cccc(-c2cccc(COc3cnc4c(ccn4CC(=O)O)c3)c2)c1` gave hNpr1 antagonist 4%[70.6 µM].
Screening CC(CNC(=O)CCc1ccc2c(c1)CN(S(C)(=O)=O)CCO2)c1ccccc1 (stereo unspecified) returned hNpr1 antagonist -2%.
CC(C)(C)C(=O)N1CCC2(CC1)CC(=O)N(c1ccccc1)c1ccccc1O2 was read as hNpr1 antagonist 19%.
For Cc1noc2c(NCCN3CCOCC3)cc(-c3ccccc3)nc12 the results were hNpr1 antagonist 6%[70.6 µM].
Screening COc1ccc(Cc2nc3nccc(-c4ccc(OC)c(OC)c4)n3n2)cc1 returned hNpr1 antagonist 1%.
For COc1ccc(NC(=O)CCC2CCN(C(=O)c3ccccc3F)CC2)c(OC)c1 the results were hNpr1 antagonist -6%.
`CC(=O)N1CCc2nn(CC(=O)N3CCN(c4ccccc4F)CC3)c(=O)cc2C1` gave hNpr1 antagonist 3%.
`N#Cc1cccc(CN2CCC3(CC2)CN(c2ncccn2)CC3CO)c1` (stereo unspecified) gave hNpr1 antagonist 7%.
Screening COc1cc(CC(=O)N2CCC3(CC2)CC(O)CCO3)cc(OC)c1 (stereo unspecified) returned hNpr1 antagonist 0%.
For CN(C)c1ccc(CN2CCn3c(nn(-c4ccc([N+](=O)[O-])cc4)c3=O)C2)cc1 the results were hNpr1 antagonist 11µM*.
For CN(CC1CCN(CCc2ccc(F)cc2)CC1)C1CCC1 the results were hNpr1 antagonist 3%.
`CC1CCc2sc(C(=O)N(C)Cc3cc(-c4ccncc4)no3)cc2C1` (stereo unspecified) gave hNpr1 antagonist inconclusive.
`CCNC(=O)C1CCc2ncc(-c3ccsc3)n2C1` (stereo unspecified) gave hNpr1 antagonist 0%.

A portion of the library, so the mix of outcomes need not match the whole.
